FGF22 binding – FGF22 (human) thermal shift binding; Q9HCT0; 340,000 tested, 1.5% active; recombinant FGF22 thermal shift, SYPRO orange fluorescence; percent of sucrose octasulfate shift, DMSO zero; AID 651658; calls only at 9.99 µM;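 active means melting point raised past a set limit in the mean and every replicate; three in four hits are not shown here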
Target sequence (Q9HCT0 whole entry, looked up): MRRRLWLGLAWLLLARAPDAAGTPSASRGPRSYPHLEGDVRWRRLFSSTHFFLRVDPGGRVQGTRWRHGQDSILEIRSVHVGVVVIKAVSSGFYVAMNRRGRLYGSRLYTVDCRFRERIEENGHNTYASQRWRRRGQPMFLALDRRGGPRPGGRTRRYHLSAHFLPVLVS
Calls only; i = inactive.

The first five compounds, to show the layout:
SMILES	FGF22 binding
CCc1cnc(N2[C@@H](C#N)[C@@H](c3ccc(-c4cccc(F)c4)cc3)[C@@H]2CO)s1	i
Cc1ccc(S(=O)(=O)N[C@H]2C=C[C@@H](CC(=O)NCCN3CCCCC3)O[C@@H]2CO)cc1	i
CCCNC(=O)N(C)C[C@@H]1Oc2ncc(C#CC3CCCCC3)cc2C(=O)N([C@H](C)CO)C[C@@H]1C	i
COc1ccc2c3c([nH]c2c1)[C@H](CO)N(C(=O)c1ccccn1)CC31CN(C(=O)C2CCCCC2)C1	i
COCC(=O)N1[C@H](CO)[C@H](c2ccccc2)C12CN(C(=O)c1ccc(F)cc1)C2	i

The listing, previewed entries included:
SMILES	FGF22 binding
CCc1cnc(N2[C@@H](C#N)[C@@H](c3ccc(-c4cccc(F)c4)cc3)[C@@H]2CO)s1	i
Cc1ccc(S(=O)(=O)N[C@H]2C=C[C@@H](CC(=O)NCCN3CCCCC3)O[C@@H]2CO)cc1	i
CCCNC(=O)N(C)C[C@@H]1Oc2ncc(C#CC3CCCCC3)cc2C(=O)N([C@H](C)CO)C[C@@H]1C	i
COc1ccc2c3c([nH]c2c1)[C@H](CO)N(C(=O)c1ccccn1)CC31CN(C(=O)C2CCCCC2)C1	i
COCC(=O)N1[C@H](CO)[C@H](c2ccccc2)C12CN(C(=O)c1ccc(F)cc1)C2	i
C[C@@H]1CCCCO[C@H](CN(C)C(=O)NC2CCCCC2)[C@@H](C)CN([C@H](C)CO)C(=O)c2cc(NC(=O)CCCCCC(=O)Nc3ccccc3N)ccc2O1	i
C[C@H]1CN([C@@H](C)CO)C(=O)c2cc(NC(=O)CCCCCC(=O)Nc3ccccc3N)ccc2O[C@@H]1CN(C)C(=O)Nc1ccccc1	i
CN(C)CC(=O)Nc1ccc2c(c1)[C@H]1C[C@@H](CC(=O)NC3CCCC3)O[C@@H](CO)[C@H]1O2	i
CC(C)C#Cc1ccc2c(c1)O[C@H](CN(C)C)[C@H](C)CN([C@@H](C)CO)S2(=O)=O	i
COc1ccc(-c2cnc3c(c2)C(=O)N([C@H](C)CO)C[C@@H](C)[C@H](CN(C)C(=O)Cc2cccnc2)O3)cc1	i
CO[C@H]1CN(C)C(=O)c2cc(NC(=O)c3nc4ccccc4s3)ccc2OC[C@H](C)N(Cc2cccnc2)C[C@H]1C	i
CN1[C@@H]2c3ccc(-c4ccccc4)c(=O)n3C[C@H]1[C@H](CO)[C@H]2C(=O)N1CCC(Cc2ccccc2)CC1	i
CN(C)C(=O)C[C@@H]1CC[C@@H]2[C@H](COC[C@@H](O)CN2C(=O)C2CC2)O1	i
COc1ccc(NC(=O)Nc2ccc3c(c2)[C@H]2C[C@@H](CC(=O)N4CCOCC4)O[C@H](CO)[C@H]2O3)cc1	i
C[C@@H]1CN([C@@H](C)CO)S(=O)(=O)c2ccc(-c3ccc(C#N)cc3)cc2O[C@H]1CN(C)C(=O)Nc1cc(F)ccc1F	i
C[C@H](CO)N1C[C@H](C)[C@@H](CN(C)C(=O)c2ccccc2F)Oc2ncc(-c3ccncc3)cc2C1=O	i
O=C(C[C@@H]1CC[C@@H](NC(=O)CC2CC2)[C@H](CO)O1)NCc1ccc(Cl)cc1	i
COc1ccc(S(=O)(=O)Nc2ccc3c(c2)C(=O)N([C@H](C)CO)C[C@H](C)[C@@H](CN(C)S(=O)(=O)c2ccc(Cl)cc2)OCCCC[C@H](C)O3)cc1	i
CNC[C@@H]1Oc2ccc(NS(=O)(=O)c3ccccc3)cc2CC(=O)N([C@@H](C)CO)C[C@@H]1C	i
C[C@H](CO)N1C[C@H](C)[C@H](CN(C)Cc2cccc(C(=O)O)c2)Oc2ncc(C#CCc3ccccc3)cc2C1=O	i
CC(C)NC(=O)N(C)C[C@@H]1Oc2ccc(NC(=O)Cc3ccccc3)cc2CC(=O)N([C@@H](C)CO)C[C@@H]1C	i
COc1ccc(NC(=O)Nc2ccc3c(c2)C(=O)N([C@H](C)CO)C[C@@H](C)[C@@H](CN(C)Cc2ccc(C(F)(F)F)cc2)O3)cc1	i
CN1C(=O)c2cc(NC(=O)C3CC3)ccc2OC[C@H]2O[C@H](CC(=O)NCc3ccccc3F)CC[C@@H]21	i
COc1ccccc1NC(=O)N[C@@H]1CC[C@@H](CC(=O)N[C@H](C)c2ccccc2)O[C@@H]1CO	i
O=C(C[C@@H]1CC[C@H]2[C@@H](COC[C@H](O)CN2S(=O)(=O)c2ccccc2)O1)NCC1CCCCC1	i
CCOC(=O)N1CCN(C(=O)C[C@H]2C[C@@]3(C(=O)OC)C(=C[C@H](C(C)(C)C)O[C@@H]3C)N(Cc3ccc4c(c3)OCO4)C2=O)CC1	i
C[C@@H]1CN([C@H](C)CO)C(=O)c2cc(NC(=O)C3CCCCC3)ccc2O[C@H]1CN(C)C(=O)Nc1ccc(C(F)(F)F)cc1	i
CC=Cc1ccc2n(c1=O)C[C@H]1[C@H](CO)[C@@H](C(=O)OC)N(C(C)=O)[C@@H]21 (mixture of isomers)	i
CC(C)NC(=O)N(C)C[C@H]1Oc2cc(-c3ccccc3)ccc2S(=O)(=O)N([C@H](C)CO)C[C@H]1C	i
C[C@@H]1CN([C@H](C)CO)C(=O)c2cc(NC(=O)Nc3ccccc3)ccc2O[C@@H](C)CCCCO[C@H]1CN(C)Cc1ccccc1	i
CNC(=O)C[C@H]1CC[C@@H]2[C@H](COC[C@@H](O)CN2C(=O)c2ccc3c(c2)OCO3)O1	i
COc1ccc(-c2ccccc2[C@H]2[C@@H](C#N)N(C(=O)C3CCOCC3)[C@H]2CO)cc1	i
C[C@@H]1CN([C@@H](C)CO)C(=O)c2cc(/C=C/c3ccccc3)cnc2O[C@H]1CN(C)C(=O)CN1CCOCC1	i
Cc1ccccc1-c1ccc([C@@H]2[C@H]3CN(C(=O)Nc4cccc(F)c4)CCCCN3[C@H]2CO)cc1	i
O=C(Cc1ccccn1)NCC[C@@H]1CC[C@H](NC(=O)CN2CCOCC2)[C@H](CO)O1	i
COc1ccccc1C(=O)Nc1ccc2c(c1)OC[C@@H](C)N(C(C)=O)C[C@H](C)[C@@H](OC)CN(C)C2=O	i
Cc1ccc(S(=O)(=O)Nc2ccc3c(c2)C(=O)N([C@@H](C)CO)C[C@H](C)[C@@H](CN(C)S(=O)(=O)c2cccs2)OCCCC[C@@H](C)O3)cc1	i
CC(C)CC#Cc1ccc2c(c1)O[C@H](CN(C)C(=O)c1ccccc1)[C@@H](C)CN([C@@H](C)CO)S2(=O)=O	i
C[C@@H]1CN([C@H](C)CO)C(=O)Cc2cc(NS(=O)(=O)c3cccs3)ccc2O[C@H]1CN(C)Cc1ccc(C(=O)O)cc1	i
O=C(NCC[C@H]1CC[C@@H](NC(=O)C2CC2)[C@@H](CO)O1)c1cnccn1	i
COC(=O)[C@H](Cc1ccccc1)N1CC2=C[C@H](C3CC3)n3c(=O)n(C)c(=O)n3[C@@H]2[C@H]1[C@H](O)Cc1ccccc1	i
CCCN1C[C@H](C)[C@@H](OC)CN(C)C(=O)c2ccc(NC(=O)Nc3ccccc3F)cc2OC[C@H]1C	i
O=C(Nc1ccc(F)cc1)OC[C@@H]1CSCCS(=O)(=O)N1	i
COc1ccc(S(=O)(=O)N(C)C[C@@H]2Oc3ncc(C#Cc4cccc(F)c4)cc3C(=O)N([C@H](C)CO)C[C@@H]2C)cc1	i
C[C@@H]1CN([C@H](C)CO)C(=O)c2cc(C3=CCCCC3)cnc2O[C@@H]1CN(C)Cc1ccc(C(=O)O)cc1	i
COc1ccc(NC(=O)N[C@H]2CC[C@H](CC(=O)NC3CCCCC3)O[C@@H]2CO)cc1	i
C[C@H]1CN([C@@H](C)CO)C(=O)c2cc(C3=CCCC3)cnc2O[C@H]1CN(C)S(=O)(=O)c1cn(C)cn1	i
C[C@H]1CN([C@@H](C)CO)C(=O)c2cc(C#CCN(C)C)cnc2O[C@H]1CN(C)C	i
CNC[C@@H]1Oc2ccc(N(C)C)cc2C(=O)N([C@@H](C)CO)C[C@@H]1C	i
Cc1cccc(S(=O)(=O)N(C)C[C@H]2OCc3ccccc3-c3c(n(C)c4ccccc34)C(=O)N([C@H](C)CO)C[C@H]2C)c1	i

Other structures follow.
SMILES	FGF22 binding
O=C(C[C@H]1C[C@H]2c3cc(NC(=O)Nc4ccc(C(F)(F)F)cc4)ccc3O[C@H]2[C@H](CO)O1)NCC1CC1	i
CS(=O)(=O)N1[C@H](CO)[C@@H](c2ccc(C#CC3CCCC3)cc2)[C@@H]1C#N	i
C[C@@H]1CN([C@H](C)CO)S(=O)(=O)c2ccc(C3=CCCC3)cc2O[C@H]1CN(C)Cc1ccccc1	i
C[C@@H]1CN([C@H](C)CO)S(=O)(=O)c2ccc(C#Cc3cccnc3)cc2O[C@H]1CN(C)C(=O)Nc1ccc2c(c1)OCO2	i
CC(=O)N[C@H]1CC[C@@H](CCNC(=O)C2CCCC2)O[C@H]1CO	i
C[C@@H]1CCCCO[C@@H](CN(C)Cc2ccc3c(c2)OCO3)[C@@H](C)CN([C@H](C)CO)C(=O)c2cc(NC(=O)CCCN(C)C)ccc2O1	i
Cc1noc(C)c1NC(=O)Nc1ccc2c(c1)C(=O)N([C@@H](C)CO)C[C@@H](C)[C@H](CN(C)S(=O)(=O)c1cn(C)cn1)OCCCC[C@H](C)O2	i
COc1ccc2c3c([nH]c2c1)[C@H](CO)N(C(=O)c1ccc(F)cc1)CC31CN(C(=O)NC(C)C)C1	i
C[C@@H]1CN([C@@H](C)CO)C(=O)Cc2cc(NC(=O)CCC(F)(F)F)ccc2O[C@H]1CN(C)S(=O)(=O)c1ccc(F)cc1	i
Cc1ccc(S(=O)(=O)Nc2ccc3c(c2)C(=O)N([C@H](C)CO)C[C@@H](C)[C@H](CN(C)C(=O)NC(C)C)OCCCC[C@@H](C)O3)cc1	i
O=C(Cc1ccccn1)NCC[C@@H]1CC[C@H](NC(=O)Nc2ccc(F)cc2)[C@H](CO)O1	i
COc1ccc([Si](C)(C)[C@H]2[C@H](CCO)O[C@@]3(C(=O)N(Cc4ccccc4)c4ccc(NC(C)=O)cc43)[C@@H]2C)cc1	i
COC(=O)C[C@@H]1CC[C@@H]2[C@@H](COc3ccc(NC(=O)C4CCOCC4)cc3C(=O)N2C)O1	i
CC(C)C#Cc1cnc2c(c1)C(=O)N([C@@H](C)CO)C[C@@H](C)[C@@H](CN(C)C(=O)Nc1cccc(F)c1)O2	i
CCC(=O)N(C)C[C@H]1Oc2ncc(-c3cccc(OC)c3)cc2C(=O)N([C@H](C)CO)C[C@H]1C	i
Cc1noc(C)c1NC(=O)N[C@@H]1CC[C@@H](CCNC(=O)C2CCCC2)O[C@H]1CO	i
O=C(C[C@H]1C=C[C@H](NC(=O)Nc2ccccc2)[C@H](CO)O1)NCc1ccccn1	i
C/C=C/c1ccc([C@@H]2[C@H](CO)N(Cc3ccccn3)[C@H]2CNC(=O)CC)cc1	i
C[C@@H]1CN([C@H](C)CO)C(=O)Cc2cc(NC(=O)Nc3ccc(F)cc3)ccc2O[C@@H]1CN(C)C(=O)NC1CCCCC1	i
CNC(=O)C[C@@H]1CC[C@@H]2[C@H](COc3ccc(NS(=O)(=O)c4ccccc4C)cc3C(=O)N2C)O1	i
CCCN(C)C[C@@H]1Oc2cc(C#Cc3cccnc3)ccc2S(=O)(=O)N([C@@H](C)CO)C[C@@H]1C	i
CC(C)NC(=O)Nc1ccc2c(c1)C(=O)N([C@@H](C)CO)C[C@@H](C)[C@H](CN(C)Cc1ccc(C(=O)O)cc1)OCCCC[C@@H](C)O2	i
C[C@H]1CN([C@@H](C)CO)C(=O)c2cccc(NC(=O)Nc3ccc(F)cc3)c2O[C@@H]1CN(C)S(=O)(=O)c1cccs1	i
COCC(=O)Nc1ccc2c(c1)OC[C@@H](C)N(C(=O)COC)C[C@H](C)[C@@H](OC)CN(C)C2=O	i
C[C@H]1CN([C@@H](C)CO)C(=O)CCCn2nncc2CO[C@H]1CN(C)Cc1ccc2c(c1)OCO2	i
COc1ccc(S(=O)(=O)Nc2ccc3c(c2)C(=O)N([C@H](C)CO)C[C@H](C)[C@H](CN(C)Cc2ccc4c(c2)OCO4)O3)cc1	i
C[C@H]1CN([C@@H](C)CO)C(=O)Cc2cc(NC(=O)CCCCCC(=O)Nc3ccccc3N)ccc2O[C@@H]1CN(C)C(=O)Nc1ccc(C(F)(F)F)cc1	i
COc1ccccc1CNC(=O)C[C@H]1C[C@@H]2c3cc(NC(=O)CN(C)C)ccc3O[C@@H]2[C@H](CO)O1	i
COc1ccc2c3c([nH]c2c1)[C@H](CO)N(C(=O)Nc1cccc(F)c1)CC31CCN(CC2CC2)CC1	i
C[C@@H]1CN([C@@H](C)CO)C(=O)c2cc(NC(=O)Cc3ccccc3)ccc2O[C@@H]1CN(C)Cc1ccc(Cl)c(Cl)c1	i
COc1ccc(S(=O)(=O)N(C)C[C@@H]2Oc3ccc(NC(=O)CCCCCC(=O)Nc4ccccc4N)cc3CC(=O)N([C@@H](C)CO)C[C@H]2C)cc1	i
CO[C@H]1CN(C)C(=O)c2cc(NC(=O)C3CCCC3)ccc2OC[C@H](C)NC[C@@H]1C	i
CC(C)[C@H](C)NC(=O)N(C)C[C@@H]1OCc2ccccc2-c2ccccc2C(=O)N([C@H](C)CO)C[C@H]1C	i

7 of the compounds above, bar-delimited.
SMILES | FGF22 binding
COc1ccccc1CNC(=O)C[C@H]1C[C@@H]2c3cc(NC(=O)CN(C)C)ccc3O[C@@H]2[C@H](CO)O1 | i
COc1ccc(S(=O)(=O)N(C)C[C@@H]2Oc3ccc(NC(=O)CCCCCC(=O)Nc4ccccc4N)cc3CC(=O)N([C@@H](C)CO)C[C@H]2C)cc1 | i
COc1ccc(S(=O)(=O)Nc2ccc3c(c2)C(=O)N([C@H](C)CO)C[C@H](C)[C@H](CN(C)Cc2ccc4c(c2)OCO4)O3)cc1 | i
CC(C)NC(=O)Nc1ccc2c(c1)C(=O)N([C@@H](C)CO)C[C@@H](C)[C@H](CN(C)Cc1ccc(C(=O)O)cc1)OCCCC[C@@H](C)O2 | i
C[C@@H]1CN([C@@H](C)CO)C(=O)c2cc(NC(=O)Cc3ccccc3)ccc2O[C@@H]1CN(C)Cc1ccc(Cl)c(Cl)c1 | i
COCC(=O)Nc1ccc2c(c1)OC[C@@H](C)N(C(=O)COC)C[C@H](C)[C@@H](OC)CN(C)C2=O | i
C[C@H]1CN([C@@H](C)CO)C(=O)c2cccc(NC(=O)Nc3ccc(F)cc3)c2O[C@@H]1CN(C)S(=O)(=O)c1cccs1 | i

Some of the compounds tested; the hit share may differ from the screen's.
